From PubChem
GALR2 agonist – activates the human galanin receptor 2; O43603; GALR2-expressing cells, agonist activation read-out; activation, %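 (tested at 5 µM)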; 140,000 compounds, 0.48% hits; AID 803;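 active = above mean plus 3 SD of all compounds, about 5% in these data, not always enough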;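 note: 0% = vehicle buffer wells and 100% = reference agonist at full effect; tested in CHO reporter cells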
RGS16-Gao – regulators of human RGS16-Galphao interaction; binding response (% of control), % at 10 µM; AID 1441; 220,000 compounds, 0.38% hits; bead-based flow cytometry RGS16-Galphao binding, fluorescence; actives lie on both sides; O15492+P09471;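 active = below 25% or above 175%, edge rows of some plates excepted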;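 note: Galphao activated by GDP with aluminum fluoride before binding; 100% = wells without compound and 0% = beads without RGS; some results beyond the cut were filed as inactive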
HSV augment – HSV replication enhancement; 220,000 compounds, 0.005% hits; HSV replication augmentation in cells, fold increase; maximum fold increase;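 active = peak rise of 1.5-fold or more in the series; tested in PC3 cells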;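 note: first round at 10 µM; read as green reporter fluorescence; hits show the peak of a series up to 25 µM; 1 = signal of infected wells without compound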
INS promoter inh – TRM-6 insulin promoter activity inhibition. TRM-6 cells (human fetal islet line), insulin promoter-eGFP reporter, imaging; reporter expression induced with tamoxifen. 130,000 compounds, 0.9% hits. inhibition, % at 2 µM;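 active = inhibition above the mean plus 3 SD, with well images judged a real hit on visual review, cut at about 60% in these data, passing the limit was not always enough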
PKD1 inh – inhibitors of human PKD1 kinase; PKD1 kinase fluorescence polarization assay; 200,000 compounds, 0.056% hits; AID 797; Q15139; inhibition, %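 (about 10 µM by stock and volumes)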;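 active = inhibition of 50% or more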;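 note: controls were vehicle for no effect and a reference inhibitor for full effect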
Target sequence (Q15139 whole entry, looked up): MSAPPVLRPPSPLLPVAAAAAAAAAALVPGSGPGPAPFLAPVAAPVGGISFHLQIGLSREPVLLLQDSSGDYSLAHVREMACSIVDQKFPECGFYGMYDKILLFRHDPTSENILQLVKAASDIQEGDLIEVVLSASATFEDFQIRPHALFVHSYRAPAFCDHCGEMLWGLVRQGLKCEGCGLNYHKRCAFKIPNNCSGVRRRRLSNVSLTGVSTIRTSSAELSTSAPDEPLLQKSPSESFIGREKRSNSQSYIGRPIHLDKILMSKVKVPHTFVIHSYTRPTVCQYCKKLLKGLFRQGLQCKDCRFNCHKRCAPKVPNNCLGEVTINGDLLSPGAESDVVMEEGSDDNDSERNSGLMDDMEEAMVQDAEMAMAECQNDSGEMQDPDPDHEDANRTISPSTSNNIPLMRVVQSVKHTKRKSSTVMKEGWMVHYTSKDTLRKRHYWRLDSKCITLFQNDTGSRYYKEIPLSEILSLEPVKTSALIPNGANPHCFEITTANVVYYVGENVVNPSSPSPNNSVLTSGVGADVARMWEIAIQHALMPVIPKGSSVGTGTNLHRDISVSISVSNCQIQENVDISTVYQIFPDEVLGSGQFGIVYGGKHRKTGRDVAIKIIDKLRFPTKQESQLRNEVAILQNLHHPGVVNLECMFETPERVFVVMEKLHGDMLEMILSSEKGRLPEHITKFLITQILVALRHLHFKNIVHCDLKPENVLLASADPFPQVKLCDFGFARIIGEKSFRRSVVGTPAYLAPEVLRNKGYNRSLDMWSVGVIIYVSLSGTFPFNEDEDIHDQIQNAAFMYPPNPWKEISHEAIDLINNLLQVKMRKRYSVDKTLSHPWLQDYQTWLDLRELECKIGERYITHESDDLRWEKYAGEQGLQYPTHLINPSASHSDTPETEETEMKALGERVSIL
INS promoter inh cell count – recorded beside INS promoter inh, whose call it bears; normalized cell count, %; measured here: cell count, toxicity; reference of the scale not given here;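 cells exposed to compound for 48 h; stained nuclei by imaging scaled within each plate; lower means fewer cells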
HSV augment primary fold – also measured in HSV augment; calls as there; fold increase; compound at 10 µM; measured here: primary screen fold increase 10 uM; tested in PC3 cells;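 GFP signal in the first replicate; 1 = infected wells without compound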
* = called active by the depositor; i = inactive; . = no result given.

A first look (4 entries):
SMILES	GALR2 agonist	RGS16-Gao	HSV augment	HSV augment primary fold	INS promoter inh	INS promoter inh cell count	PKD1 inh
Cc1c(CNC(=O)c2nn3c(c2Cl)NC(c2ccccc2)CC3C(F)(F)F)cnn1C (centres undefined)	-0.4	105	i	0.96	.	.	0
Cc1ccc(C)c(Cn2c(C(=O)OC(C)C)cc3c2ccn3C)c1	0.9	93	i	0.99	-29	66	4
O=C1S/C(=C\c2ccc(N3CCOCC3)o2)C(=O)N1Cc1ccc(F)cc1	-2.9	386	i	0.88	-13	119	-20
O=C(O)COc1c(-c2ccc(Cl)cc2)oc2ccccc2c1=O	.	93	i	0.97	.	.	-5

All compounds of this part, from the start:
SMILES	GALR2 agonist	RGS16-Gao	HSV augment	HSV augment primary fold	INS promoter inh	INS promoter inh cell count	PKD1 inh
Cc1c(CNC(=O)c2nn3c(c2Cl)NC(c2ccccc2)CC3C(F)(F)F)cnn1C (centres undefined)	-0.4	105	i	0.96	.	.	0
Cc1ccc(C)c(Cn2c(C(=O)OC(C)C)cc3c2ccn3C)c1	0.9	93	i	0.99	-29	66	4
O=C1S/C(=C\c2ccc(N3CCOCC3)o2)C(=O)N1Cc1ccc(F)cc1	-2.9	386	i	0.88	-13	119	-20
O=C(O)COc1c(-c2ccc(Cl)cc2)oc2ccccc2c1=O	.	93	i	0.97	.	.	-5
c1ccc(CN2CCOCCOCCOCC2)cc1	.	102	i	1.1	.	.	.
CC(Oc1ccc(Cl)cc1Cl)C(=O)N(C)c1ccccc1 (centres undefined)	.	102	i	1.1	.	.	7
Fc1ccc(-n2cc(CNCCc3ccncc3)c(-c3ccccc3Cl)n2)cc1	.	96	i	0.63	-65	111	8
C#CCn1c(=NC(=O)c2ccc(Br)s2)sc2cc(NC(C)=O)ccc21	1.8	108	i	1.1	22	177	-7
COc1cccc(/C=N/NC(=O)c2[nH]c(C)c(C(=O)N/N=C/c3cccc(OC)c3O)c2C)c1O	-4.0	59	i	0.91	10	71	-3
Cc1cc(C)n2nc(CC(=O)NC3CCCCCCC3)nc2n1	-1.0	96	i	0.97	.	.	-9
COc1ccccc1C(=O)N1CCCN(C(=O)c2ccccc2OC)CC1	-0.3	102	i	0.9	27	104	2
COc1ccc(-c2ccc(OC)c([C@H]3[C@H]4C=CC[C@@H](C)[C@@H]4C(=O)N3Cc3ccccc3)c2)cc1	.	91	i	0.97	.	.	.
NC(=O)c1ccccc1NC(=O)CCCN1C(=O)CCC1=O	-2.0	93	i	0.89	-27	89	-2
COc1ccc(/C=N/N=C/c2ccc(OC)c(O)c2)cc1O	-1.0	63	i	0.87	47	105	-11
CCOc1ccc(NC(=O)CSc2nnc(-c3ccccc3)n2N)cc1	-1.4	99	i	0.98	.	.	-4
Cc1cc(Nc2ccccc2)n(-c2ccccc2)n1	-0.4	102	i	1	0	76	-9
CCCOC(=O)c1ccc(NC(=O)c2cc(Cl)ccc2OC)cc1	0.1	103	i	1.2	.	.	3
CCN(CC)C(=O)Cn1c(=O)n(Cc2ccccc2Cl)c2c1c(=O)n(C)c(=O)n2C	-1.1	.	i	0.92	14	108	-10
CCOC(=O)Cc1nc2ccccc2o1	.	205	i	0.95	6	88	5
Nc1cccc(S(=O)(=O)Nc2ccccc2)c1	.	96	i	0.9	-46	100	2
CCNC(=O)N1CCNC(=O)C1CC(=O)OC (centres undefined)	-0.7	96	i	0.87	-1	169	-1
Cc1ccc(C)c(OCc2nc(-c3cccnc3)no2)c1	0.1	83	i	1.2	64	75	-1
Cc1ccc(C)c(NC(=S)/C(=C(\[O-])c2ccc(OC(F)F)cc2)[n+]2ccccc2)c1	.	103	i	1.1	.	.	4
COc1ccc(-c2nc(NC(=O)Cn3c(=O)oc4ccccc43)sc2C)cc1	-0.5	107	i	0.98	31	127	11
O=C(CNS(=O)(=O)c1ccccc1)NNC(=O)C(Cl)Cl	.	96	i	1.1	.	.	-3
CCN(CC)c1ncnc2c1cnn2Cc1ccc(Cl)cc1	.	103	i	1	36	78	7
CCCCn1c(CN2CCN(c3cccc(Cl)c3)CC2)nc2c1c(=O)n(C)c(=O)n2C	-0.9	98	i	0.62	0	220	4
O=C(CNC(=O)c1ccccc1Cl)OC1CCOC1=O (centres undefined)	.	96	i	1	.	.	-2
O=c1cc(N2CCOCC2)[nH]c(=O)n1-c1ccc(Cl)cc1	-3.7	96	i	0.94	.	.	2
COc1ccc(NC(=O)N2CCOCC2)cc1OC	-3.1	89	i	0.99	12	183	-3
CCn1c2ccccc2c2cnc(N=CN(C)C)c(C#N)c21	1.4	103	i	0.88	-11	146	5
CCOc1cc2c(cc1OCC)C(c1ccc(OC)c(OC)c1)N(c1ccc(C(=O)O)cc1)C(=O)C2 (centres undefined)	.	100	i	0.99	.	.	1
CCn1c(SCC(=O)NCc2ccccc2)nnc1-c1cccnc1	.	101	i	1.1	0	135	2
C/C(=C\C=C\c1ccccc1)C(=O)c1c(C)cc(C)[nH]c1=O	.	97	i	1	45	69	-3
Cc1ccn2cc(-c3cccc([N+](=O)[O-])c3)nc2c1	.	100	i	0.97	44	134	12
O=c1c2c3c(sc2nc(NCCOCCO)n1Cc1ccco1)CCCCC3	.	32	i	0.78	.	.	.
C=CCN(c1ccc(Cl)cc1)S(=O)(=O)c1cccc(C(=O)OCC(=O)N(C)C)c1	.	107	i	0.94	.	.	0
Cc1c(C(=O)O)cc(C(C)(C)C)n1CCSCCO	.	98	i	1.1	.	.	.
Cc1ccc(NC(=S)NNC(=O)c2nn(C)cc2Cl)cc1	-1.5	92	i	1.1	.	.	0
Cc1cc(C)nc(NS(=O)(=O)c2ccc(NC(=O)Cc3ccccc3)cc2)n1	.	104	i	0.98	.	.	-10
Cc1ccc(F)cc1NC(=O)C1CC(=O)N(CCc2ccccc2)C1 (centres undefined)	.	104	i	0.88	.	.	-3
COc1cc(C(=O)NCC(C)C)cc(OC)c1OC	-3.1	107	i	0.86	-11	120	5
Cc1nn(Cc2ccccc2)c(Cl)c1C(=O)NCCc1ccc(Cl)cc1	0.8	170	i	1	-38	58	-10
O=C(CO/N=C/c1ccccc1OC(F)F)N1CCc2ccccc21	0.0	104	i	1	.	.	-5
Cc1nccn1CC(=O)N/N=C/c1c[nH]c2ccccc12	.	96	i	0.97	.	.	.
CCCCC(CC)CNC(=O)CN(C)S(=O)(=O)c1cccc2nsnc12 (centres undefined)	-2.7	101	i	1	.	.	-11
O=C(CN1C(=O)c2ccccc2S1(=O)=O)N1CCN(Cc2ccc3c(c2)OCO3)CC1	-4.1	103	i	1	50	58	-3
COc1cccc(Nc2n[nH]c(=S)s2)c1	-1.6	64	i	1.1	.	.	-3
Cc1noc(C)c1COc1ccc(CC(=O)NCc2ccccc2)cc1	.	109	i	0.87	.	.	5
CCn1c(SCC(=O)NC(C)(C)C)nc(O)cc1=O	-1.3	104	i	0.79	.	.	5
CCOC(=O)C(NCCc1ccccc1F)(NC(C)=O)C(F)(F)F (centres undefined)	0.0	108	i	1	.	.	-7
CC1CCN(c2cc(N(C)CCO)c([N+](=O)[O-])c3nonc23)CC1	.	105	i	0.94	-42	149	9
CCOc1ccc(C2NC(=O)C(C#N)=C(S)N2c2cccc(C)c2)cc1OC (centres undefined)	.	102	i	0.98	.	.	-3
COc1ccc(N2CCN(C(CNC(=O)c3cccc(Cl)c3)c3cccnc3)CC2)cc1 (centres undefined)	-0.5	103	i	0.94	.	.	-1
C=CCOc1ccc(C2OC34CCCCC3C(C#N)(C#N)C2(C#N)C(=N)O4)cc1 (centres undefined)	1.6	96	i	1.1	6	120	4
CN(CC(=O)Nc1ccc(Cl)c(C(F)(F)F)c1)Cc1cc(=O)n2ccsc2n1	.	97	i	0.91	-35	126	0
COc1ccc(Nc2nc(S(=O)(=O)c3ccc(C)cc3)c(Cl)s2)cc1	-1.2	91	i	1.1	.	.	-3
CSCCC(NC(=O)c1ccc([N+](=O)[O-])cc1Cl)C(=O)OCC(=O)NCCCc1ccccc1 (centres undefined)	-0.1	111	i	0.9	0	122	-9
CSCCC(NC(=O)c1ccc([N+](=O)[O-])cc1Cl)C(=O)OCC(=O)NCC(F)(F)F (centres undefined)	-1.2	101	i	0.96	.	.	-5
CCCCNC(=O)c1ccc(-n2c(=S)[nH]c3ccccc3c2=O)cc1	.	97	i	1	.	.	0

More entries follow.
SMILES	GALR2 agonist	RGS16-Gao	HSV augment	HSV augment primary fold	INS promoter inh	INS promoter inh cell count	PKD1 inh
N#CC(C#N)C(c1ccsc1)c1c(-c2ccccc2)[nH][nH]c1=O (centres undefined)	0.4	95	i	1.1	32	122	-7
c1ccc2c(c1)CCCN2Cc1nnnn1C1CCCC1	-1.5	97	i	1	.	.	-7
COc1ccc(OC)c(NC(=O)[C@H]2CC=CC[C@H]2C(=O)O)c1	-2.1	96	i	0.96	44	141	0
N=C1C(c2nc(-c3ccc(Br)cc3)cs2)=C(O)CN1NC(=O)c1ccc([N+](=O)[O-])cc1	.	105	i	0.84	-18	120	0
Cc1cc(C)c(S(=O)(=O)N2CCOC2CNC(=O)C(=O)NCCc2c[nH]c3ccccc23)c(C)c1 (centres undefined)	-2.0	99	i	0.91	-310	80	-1
CC1(C)C([N+](=O)[O-])C(c2ccc(Cl)cc2)NC(c2ccc(Cl)cc2)C1[N+](=O)[O-] (centres undefined)	-1.4	100	i	1	.	.	-5
COC(=O)c1ccc(CN2CCN(CC=C(C)C)C(CCO)C2)cc1 (centres undefined)	.	229	i	0.99	7	79	2
CCc1cc(-c2n[nH]c(=S)n2C(C)c2ccccc2)cs1 (centres undefined)	0.3	101	i	0.82	-40	104	2
CCC(=O)NC(=S)NNC(=O)c1ccc(NC(=O)c2ccccc2)cc1	.	95	i	0.98	22	67	-4
COC(=O)c1cc2c(s1)-c1ccccc1CC2	-0.3	99	i	0.98	0	88	-9
CN1CCN(c2cc(C(F)(F)F)nc(-c3ccccn3)n2)CC1	.	100	i	0.96	.	.	3
OC1C2CN3CCN(C2)CC1(Cc1ccccc1)C3 (centres undefined)	-0.7	96	i	1	-281	40	2
O=C(Nc1ccc(Cl)cc1)NC1CCCCC1	-1.9	96	i	1	0	113	-1
CC1CCC(NC(=O)C2c3ccccc3C(=O)N2Cc2cccs2)CC1 (centres undefined)	-0.4	116	i	1.2	.	.	4
CCOC(=O)c1c(C)n(C)c2ccc(OCCN(C)C)cc12	-2.3	106	.	.	39	99	-8

Reformatted field by field: entries from further up
Compound: OC1C2CN3CCN(C2)CC1(Cc1ccccc1)C3 (centres undefined)
  GALR2 agonist: -0.7
  RGS16-Gao: 96
  HSV augment: i
  HSV augment primary fold: 1
  INS promoter inh: -281
  INS promoter inh cell count: 40
  PKD1 inh: 2

Compound: O=C(Nc1ccc(Cl)cc1)NC1CCCCC1
  GALR2 agonist: -1.9
  RGS16-Gao: 96
  HSV augment: i
  HSV augment primary fold: 1
  INS promoter inh: 0
  INS promoter inh cell count: 113
  PKD1 inh: -1

Continuation:
SMILES	GALR2 agonist	RGS16-Gao	HSV augment	HSV augment primary fold	INS promoter inh	INS promoter inh cell count	PKD1 inh
NC(=O)c1cc(-c2ccccc2)nc(Oc2ccccc2)n1	-0.9	102	i	0.88	-100	127	-3
Cc1ccc(CNC(=O)CCNC(=O)c2ccc(Br)o2)cc1	28*	110	i	0.97	31	95	8
Cc1ccc(-n2ncc3c(NCc4ccccc4)ncnc32)cc1	-2.1	94	i	0.81	.	.	11
O=C(CCN1C(=O)C2CCCCC2C1=O)NNC(=O)c1cccc(Cl)c1 (centres undefined)	-1.1	107	i	0.94	-33	116	-7
Cc1cc(C(C)(C)C)oc1C(=O)N(CC(=O)NC1CCCC1)Cc1ccc(Cl)cc1	-3.2	100	i	0.89	19	91	10
O=C(NCc1ccc2c(c1)OCO2)c1nn(-c2ccccc2)c(=O)c2ccccc12	-1.6	106	i	0.92	.	.	0
O=C(CSc1nc(-c2ccc(F)cc2)cs1)N1CCOCC1	-3.1	104	i	1.1	14	87	2
O=C(Nc1ccc(N2CCN(C(=O)c3ccccc3)CC2)cc1)c1cc2ccccc2o1	-2.9	101	i	0.87	-65	105	3
O=C(Nc1ccccc1)C1CC(=O)N(C2CCCCC2)C1 (centres undefined)	-0.8	118	i	1	-45	139	-8
O=C(CCC1CCCN(C(=O)c2ccc3[nH]ccc3c2)C1)N1CCN(c2ccccn2)CC1 (centres undefined)	.	99	i	0.97	.	.	0
COc1ccc(C(=O)N/C(=C\c2ccc([N+](=O)[O-])cc2)C(=O)NC(CCSC)C(=O)O)cc1 (centres undefined)	.	95	.	.	0	166	-4
OCCN(Cc1ccccc1)Cc1ccccc1Cl	-2.9	101	i	0.85	53	152	-12
O=C(c1ccc(CNS(=O)(=O)c2cccc(C(F)(F)F)c2)cc1)N1CCOCC1	0.8	97	.	.	21	101	-3
